D2 ag = Beta-Arrestin HTS for Positive Allosteric Modulators of the Human D2 Dopamine Receptor: Agonists. DiscoveRx PathHunter D2 beta-arrestin, luminescence, 90 min; 100% = 57 uM dopamine signal. activation, % (test concentration not listed). D(2) dopamine receptor (Homo sapiens), P14416. actives 0.084% (n = 360,000). AID 624465, 2012; in the data active = activation above about 40%; inconclusive = about 15% to 40%; inactive = below about 15%; note: compound concentration not given in the record; the text of the record calls up to 30% inactive
Target sequence (P14416 whole entry, looked up): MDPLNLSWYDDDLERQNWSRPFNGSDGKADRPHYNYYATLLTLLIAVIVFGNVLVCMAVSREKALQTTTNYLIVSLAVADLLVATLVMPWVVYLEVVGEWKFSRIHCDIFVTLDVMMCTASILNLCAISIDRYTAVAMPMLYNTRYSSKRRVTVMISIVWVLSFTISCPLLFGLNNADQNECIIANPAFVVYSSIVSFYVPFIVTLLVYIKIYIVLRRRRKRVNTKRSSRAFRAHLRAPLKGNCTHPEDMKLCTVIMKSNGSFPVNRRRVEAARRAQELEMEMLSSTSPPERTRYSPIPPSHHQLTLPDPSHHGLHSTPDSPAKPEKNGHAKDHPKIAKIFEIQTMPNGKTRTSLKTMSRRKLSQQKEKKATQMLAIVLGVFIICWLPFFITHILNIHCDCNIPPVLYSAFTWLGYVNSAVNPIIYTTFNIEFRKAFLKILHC
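DiscoveRx PathHunter D2 beta-arrestin cells (2,100/well) attached overnight, then compound-stimulated 90 min at 37 C in HBSS/10 mM HEPES/0.1% Tween-20 buffer; beta-galactosidase complementation read by luminescence after 1 h at ambient temperature. Dopamine 57 uM final (EC100) as control.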
gsp antagonist = qHTS for Antagonists of gsp, the Etiologic Mutation Responsible for Fibrous Dysplasia/McCune-Albright Syndrome: qHTS. gsp-mutant cells, cAMP HTRF, 30 min; control for the full effect not named in the record. Potency, µM (titrated, usually from 76.9 µM), without a hit: at the highest dose activity change, negative = inhibition, most hits filed as inhibitors. actives 0.4% (n = 340,000); active = falling curve of any shape with a large fitted effect; inconclusive = falling curve, mostly with a smaller effect; inactive = flat or rising curve; cell line not stated here;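 note: intracellular cAMP measured with PDE inhibitor Ro 20-1724 present during compound exposure; potency is the fitted concentration of half-maximal effect; % is set by controls: 0 for no effect and ±100 for the full control effect; nearly all actives have a fitted effect of over 65% in size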
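HTRF cAMP measurement after 30 min RT detection following 30 min, 37C compound treatment alongside […] (added as 300 uM solution) in G418-selected cells seeded at 2000/well and grown 16–24 h.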
gsp ag = qHTS for Agonist of gsp, the Etiologic Mutation Responsible for Fibrous Dysplasia/McCune-Albright Syndrome: qHTS | actives 0.13% (n = 340,000) | Potency, µM (titrated, usually from 76.9 µM), for inactives: top-dose activation (cAMP increase), actives largely listed as activators | gsp mutant cells, cAMP HTRF, 30 min; control for the full effect not named in the record; active = well fitted activation curve with a large enough effect; inconclusive = small, poorly fitted or top-dose-only effect, or another doubt; inactive = no such curve, though single readings can be large or run the other way; cell line not stated here;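 note: phosphodiesterase inhibitor Ro 20-1724 added with compounds to block cAMP breakdown; potency is the fitted concentration of half-maximal effect; nearly all actives have a fitted effect of over 60% in size; about a fifth of the inactives were tested at one dose only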
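Cells stably selected in G418 were plated at 2000/well, grown 16-24 hr, then given compounds in DMSO with the PDE inhibitor […] (300 uM solution added) for 30 min at 37C; cAMP was read by HTRF.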
Menin MLL FP FL = qHTS Assay for Inhibitors Targeting the Menin-MLL Interaction in MLL Related Leukemias: Competition With Fluorescein Labeled MLL-derived Peptide; Fluorescence polarization, fluorescein-MLL peptide displacement from menin; FP activity change, % at 61.4 µM; 290,000 tested, under 10 active; inconclusive = falling polarisation curve, or a change in total fluorescence; inactive = total fluorescence flat and polarisation flat or rising; no compound was filed as active; the % refers to the polarisation; negative = inhibition;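 note: % of control where 0% means no effect; inhibitors lower the polarisation; unlabelled MLL peptide was the positive control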
PINK1 expr mod = A Quantitative High throughput Screen to Identify Chemical Modulators of PINK1 Expression | actives 0.2% (n = 410,000) | Potency, µM (doses to about 76.6 µM), inactives show at the highest dose activation (PINK1 increase), usual class: activators | PINK1 immunofluorescence, high-content cytometry, 24 h | AID 624263, 2012; active = well fitted activation curve with a large enough effect; inconclusive = small, poorly fitted or top-dose-only effect; inactive = flat fitted curve, though single readings scatter; cell line not stated here;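 note: potency is the fitted concentration of half-maximal effect; % of control where 0% means no effect; nearly all actives have a fitted effect of over 65% in size; a mitochondrial uncoupler was the plate control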
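Decision-based qHTS: stable cells, 24 h exposure to five compound concentrations, CCCP as control. Fixed cells stained for PINK1 plus nuclear, mitochondrial and cell markers, cytometer read.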
ClpP mod = qHTS Assay for Activators of ClpP; ATP-dependent Clp protease proteolytic subunit (Bacillus subtilis (strain 168)), P80244; purified B. subtilis ClpP, FRET peptide cleavage, 20 min; Potency, µM (doses to about 57.5 µM), inactives show top-dose activity change, negative = active; actives 1.9% (n = 340,000); AID 651965, 2013; active = well fitted falling curve with a large enough effect; inconclusive = small, poorly fitted or top-dose-only effect; inactive = no such curve, though single readings can be large or run the other way; note: potency is the fitted concentration of half-maximal effect; the source files actives as falling curves though it sought activators and does not explain the sign; nearly all actives have a fitted effect of over 65% in size; many hits overshoot -100%
Target sequence (P80244 whole entry, looked up): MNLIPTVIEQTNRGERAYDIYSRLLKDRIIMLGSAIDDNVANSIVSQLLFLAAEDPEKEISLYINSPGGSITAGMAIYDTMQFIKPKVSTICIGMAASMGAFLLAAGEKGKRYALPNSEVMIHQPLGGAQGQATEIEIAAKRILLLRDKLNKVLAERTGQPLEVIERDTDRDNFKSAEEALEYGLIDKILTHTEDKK
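FRET quenching reversal measured ClpP activation: 10 microg/mL B. subtilis ClpP at pH 8 with the FRET-FV decapeptide, read at 430 nm after 320 nm excitation. The 20-min minus 0-min signal was scaled between DMSO/no-enzyme wells and ADEP (5.8 microM final).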
Sfp inh = qHTS Assay for Inhibitors of Bacillus subtilis Sfp phosphopantetheinyl transferase (PPTase); 4'-phosphopantetheinyl transferase ffp (Bacillus subtilis), Q9F4F7; Biochemical Sfp PPTase activity, qHTS; Potency, µM, without a hit: max response, negative = inhibition, actives largely listed as inhibitors; actives 3.5% (n = 310,000); active = well fitted inhibition curve with a large enough effect; inconclusive = small, poorly fitted or top-dose-only effect, or another doubt; inactive = no such curve, though single readings can be large or run the other way;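 note: the enzyme is Sfp with the accession as filed and its product quenches rhodamine fluorescence; potency is the fitted concentration of half-maximal effect; 0% = enzyme reaction without inhibitor and -100% = no enzyme wells; top concentration of the series not given in the record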
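After 15 min at room temperature with compound, 15 nM Sfp received 5 uM rhodamine-CoA plus 12.5 uM BHQ-2-ybbR (50 mM Hepes pH 7.6, 10 mM MgCl2). Rate came from the fluorescence difference over 30 min, ex 525/em 598 nm.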
Numbers without * were called inactive; ? = inconclusive; . = no result given; [ ] = another dose, or the depositor's remark.

molecule | D2 ag | gsp antagonist | gsp ag | Menin MLL FP FL | PINK1 expr mod | ClpP mod | Sfp inh
COc1ccc(-c2cc([C@H]3[C@@H]4C=CCC[C@@]4(C)C(=O)N3Cc3ccccc3)ccc2F)cc1OC | -7.7 | -24% | -3% | -1.5 | 9.9% | -22% | ?
CCC(=O)Nc1c(S(=O)(=O)c2ccc(C)cc2)c2nc3ccccc3nc2n1C(C)c1ccccc1 (configuration not stated) | 0.5 | -2% | -5%[15.4 µM] | 0.4 | 1.8% | 20µM* | 5%
COc1ccccc1C(=O)Nc1ccccc1C(=O)NCc1ccco1 | 1.4 | -5% | -13% | . | 0.3% | -3.6% | 16%
O=C(NC1CCN(Cc2ccccc2)CC1)c1ccccc1NS(=O)(=O)c1ccc(F)cc1 | 3.4 | -12% | 12%[15.4 µM] | . | 2.1% | 0.4% | .
CC1(C(=O)OCC(=O)Nc2nnc(-c3ccccc3)o2)CC1(Cl)Cl (configuration not stated) | -5.2 | -4% | -46%[inhibitor] | . | -1.0% | 1.5% | .
Cc1cccc(N2CCN(Cc3cnc(Cl)s3)CC2C)c1 (configuration not stated) | -3.9 | -26% | 11%[15.4 µM] | -2.7 | 5.0% | . | -24%
CCOC(=O)c1ccc(NC(=O)c2cccc(C)c2[N+](=O)[O-])cc1 | -5.6 | -21% | 10%[15.4 µM] | -1.1 | 1.2% | . | -11%
O=C(COc1ccc(S(=O)(=O)N2CCOCC2)cc1)NCCc1ccccc1 | -0.4 | -1% | -7%[15.4 µM] | . | 1.2% | . | .
COC(=O)CNC(=O)c1ccccc1F | -0.5 | 7% | -77%[inhibitor] | 1.8 | -0.4%[38.3 µM] | -2.1% | 20%
COc1ccc(C(=O)NCC2CCCO2)cc1OC (configuration not stated) | -6.1 | 7% | ? | -1.0 | -0.4% | -0.2% | 18%
C=CCn1c(SCc2nc3sc(C(=O)O)c(C)c3c(=O)[nH]2)nnc1-c1ccc(C(C)(C)C)cc1 | 1.1 | -4% | -15%[15.4 µM] | ? | 0.1% | . | 28µM*
O=C(NNc1ccccc1[N+](=O)[O-])Nc1ccc(Cl)c(Cl)c1 | -2.2 | -21% | 15%[15.4 µM] | 13 | ? | 2.8% | -20%
NNC(=O)CSc1nnc(-c2ccccc2)n1-c1ccccc1 | -5.8 | 3% | -23%[15.4 µM] | -4.5 | 1.2% | -1.7% | 7%
COc1cccc(-c2nn(-c3ccccc3)cc2/C=C\C(=O)c2cccs2)c1 | -1.6 | -1% | -44%[inhibitor] | . | 5.3% | -1.4% | 15%
COC(=O)c1ccc2[nH]c3cccc(/C(=C/c4ccccc4)c4ccccc4)c3c2c1 | 0.9 | 7% | . | -7.5 | -1.3% | 3.9% | 30%[activator]
O=C(OCC(=O)C12CC3CC(CC(C3)C1)C2)c1ccc(O)cc1O | 6.8 | -11% | -2%[15.4 µM] | . | -4.9% | . | .
COc1ccc(C(=O)Nc2nnc(Cc3ccc(OC)c(OC)c3)s2)cc1 | -2.1 | 14% | -6% | 1.7 | 1.2% | . | 8%
COCCCNC(=O)CSc1ccsc1[N+](=O)[O-] | -3.7 | -4% | 29% | 4.4 | 1.5% | -3.6% | 5%
CCOc1ccccc1C(=O)Nc1cc(Cl)ccc1O | -1.3 | ? | -8% | 5.1 | 10% | -10% | 3%
COCCNC(=O)/C(C#N)=C/c1cc(Br)c(O)c(OC)c1 | -7.1 | -99% | 17%[15.4 µM] | ? | 1.0% | . | -4%
Nc1nonc1-n1nnc(C(=O)N/N=C/c2ccco2)c1CSc1ccc(Cl)cc1 | -0.3 | . | -23% | . | 5.0% | -12% | .
O=C(CC(Cc1ccccc1)C(=O)O)Nc1ccc(Cl)c(Cl)c1 (configuration not stated) | 3.5 | -4% | ? | -2.9 | 1.5% | . | 13%
O=C(c1ccc2c(=O)n(Cc3ccco3)c(=S)[nH]c2c1)N1CCN(c2ccccc2)CC1 | -3.8 | 8% | 4% | -1.0 | 4.2% | -1.4% | 0%
CC(C)c1ccc(C2CC(c3ccc(Br)cc3)=NN2C(N)=S)cc1 (configuration not stated) | -2.4 | -7% | 0%[15.4 µM] | 0.0 | 5.5% | -2.9% | 5%
Cc1nn(-c2ccccc2)c(N2CCCC2)c1/C=N/NC(=O)c1ccccc1O | -3.5 | ? | -8% | 0.4 | 1.8% | -5.7% | 10%

Additional structures follow:
molecule | D2 ag | gsp antagonist | gsp ag | Menin MLL FP FL | PINK1 expr mod | ClpP mod | Sfp inh
CN1CCN(C(=O)C2CCC(C)(C(=O)O)C2(C)C)CC1 (configuration not stated) | -3.9 | 0% | 9%[15.4 µM] | -0.3 | -0.5% | . | 9%
O=C1CC(N2CCN(c3ccccc3)CC2)C(=O)N1c1ccc(Cl)cc1 (configuration not stated) | 1.1 | -3% | -2% | 1.6 | 0.6% | -0.5% | 24%
CC12CCC(C(=O)Nc3ccccc3Cl)([C@H](Br)C1=O)C2(C)C (some centres not stated) | 0.2 | 1% | -15%[15.4 µM] | -3.9 | 2.6% | . | 19%
O=[N+]([O-])c1ccc(N2CCN(c3ccccc3F)CC2)c(S(=O)(=O)N2CCOCC2)c1 | -1.1 | -18% | -6% | 1.5 | 2.8% | -0.5% | 6%
Cc1cccc(/C=N/NC(=O)c2ccc(NC(=O)c3cccc(Cl)c3)cc2)n1 | 10 | 2% | -1% | -1.6 | 5.5% | . | 9%
N#C/C(=C\c1cccc([N+](=O)[O-])c1)C(=O)NCC1CCCO1 (configuration not stated) | 3.0 | 3% | 0% | -5.5 | 0.8% | -0.6% | ?
OCCC1CN(CCCn2cccn2)CCN1C1CCCCC1 (configuration not stated) | -0.7 | 10% | -3%[15.4 µM] | -0.3 | -0.2% | . | 9%
CCc1ccccc1NC(=O)COC(=O)c1cccs1 | -0.1 | . | 16%[15.4 µM] | 0.3 | 2.3% | . | 11%
Cc1ccccc1NC(=O)c1nn(C)c(C(=O)Nc2ccccc2C)c1[N+](=O)[O-] | -4.5 | 1% | -2% | 0.4 | -1.0% | 1.5% | 10%
COc1cc2c(cc1OC)C(C)N(C(=O)[C@@H](NC(=O)c1ccccc1)C(C)C)CC2 (some centres not stated) | 12 | -9% | -12% | -0.1 | 11% | . | 16%
C=CCn1c(SCC(=O)Nc2ccc(F)cc2)nnc1-c1cnccn1 | 5.4 | 2% | 22% | . | -1.7% | -2.4% | 5%
COc1ccc(/C=N/Nc2ncnc3c2[nH]c2ccc(C)cc23)c(OC)c1OC | -0.8 | 3% | -3%[15.4 µM] | 5.2 | 1.2% | . | -11%
COc1ccc(C(=O)/C=C/c2ccc(O)cc2)c(O)c1C/C=C(\C)CCC=C(C)C | 8.0 | -10% | . | . | -0.7% | -3.6% | .
Cc1cc(-n2c(=O)c(C#N)cc3c(=O)n4ccccc4nc32)no1 | -3.4 | -2% | 23% | ? | -1.7% | 22% | -18%
CCOC(=O)c1ccc(NC(=S)NCCCN2CCOCC2)cc1 | 3.6 | 11% | 19% | 1.9 | -0.5% | 0.3% | -17%
COc1cc2ccc(NC(C)=O)cc2cc1OC | -4.0 | . | 7% | . | 0.2% | -6.5% | .
CCN(CC)C(=O)CSc1ncnc2c1cnn2-c1ccccc1 | -0.5 | -10% | 5% | 4.7 | -1.6% | 0.1% | 25%
COc1ccccc1N(C)S(=O)(=O)c1ccc(C(=O)Nc2ccc(N3CCOCC3)cc2)cc1 | -0.2 | ? | ? | 1.5 | 2.4% | . | 15%
O=C(CN1C(=O)NC2(CCOc3ccccc32)C1=O)Nc1ccc(Br)cc1F (configuration not stated) | -1.9 | 3% | 33% | . | 2.5% | -0.7% | .
CCCc1c(C(=O)N/N=C/c2ccc(-c3ccccc3)cc2)nnn1-c1nonc1N | -2.0 | . | 5% | . | 1.3% | -18% | .
Cc1cc(OC(=O)c2ccc3ccccc3c2)c([N+](=O)[O-])c(=O)[nH]1 | -2.1 | -13% | -7% | -2.0 | 0.8% | . | 11%
O=C(Nc1nccs1)c1ccc2nccnc2c1 | -3.1 | 6% | -23% | -1.2 | -3.4% | -1.3% | 7%
CC(=O)c1cccc(-c2ccnc3c2CC(C(=O)NCCc2ccccc2)O3)c1 (configuration not stated) | 2.6 | . | . | . | 6.3% | 1.9% | .
Cc1ccc(N/N=C(/Sc2nnnn2-c2ccccc2)C(=O)c2ccccc2)cc1 | -8.5 | 25µM* | 1% | 9.1 | 9.3% | -0.4% | 11%
O=c1[nH]n2c(=O)c3c([nH]c2c1N=Nc1cccc(Cl)c1)CCCC3 | -6.5 | -23% | -140% | 2.8 | 0.7% | -1.1% | 8%

The results go on.
molecule | D2 ag | gsp antagonist | gsp ag | Menin MLL FP FL | PINK1 expr mod | ClpP mod | Sfp inh
CN(C)S(=O)(=O)c1cc(NC(=O)Cn2ccsc2=N)ccc1Cl | 0.0 | 16% | ? | 0.8 | 0.5% | 0.8% | 10%
O=C(C1CC1)N1CCc2[nH]c3ccccc3c2C1 | -3.0 | 1% | -26% | -1.2 | -0.5% | -2.5% | 16%
O=C(COC(=O)C1=COCCO1)Nc1ccc(Cl)cn1 | 9.5 | 6% | 23% | . | 0.1% | -2.9% | .
COc1ccc(Cn2cccc(NC(=O)Nc3ccc(F)cc3)c2=O)cc1 | -2.2 | -4% | 15% | -5.4 | 1.5% | 4.3% | -8%
COc1ccc(NC(=S)N2CCN(C(=O)c3ccco3)CC2)cc1OC | 1.5 | -11% | 0% | . | -1.7% | -2.8% | 6%
CC(=O)NC(c1ccc(N(C)C)cc1)c1cc(Cl)c2cccnc2c1O (configuration not stated) | -14 | . | 5% | . | 3.7% | -4.8% | .
O=C(CCCn1c(SCc2ccccc2F)nc2ccccc2c1=O)NCC1CCCO1 (configuration not stated) | 1.2 | -7% | -13% | -2.1 | 3.6% | . | -5%
